Screening results as filed in PubChem BioAssay.
rRNA inh HTS: selective bacterial rRNA inhibition in E. coli | E. coli WT GFP vs humanized-ribosome RFP mutants, fluorescence, 24 h; hits give low values; DMSO median 0, no signal -100 | GFP signal change (wild-type ribosome), % (test concentration not listed) | 350,000 tested, 1.6% active;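 active means significant combined selectivity score with lowered wild-type GFP, culture density cut under 30%, mutant RFP and density less affected; inactive means any of these conditions unmet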; further: one replicate is shown; some compounds called inactive have numbers as strong as hits
rRNA inh HTS OD600: further read-out of rRNA inh HTS, marked with its call; OD600 change, %; measured here: OD600 growth;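 optical density of the mix in the first replicate; 0 = DMSO median and -100 = no signal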
rRNA inh HTS RFP: also measured in rRNA inh HTS; calls as there; RFP signal change, %; measured here: RFP humanized mutant strains;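 first replicate; 0 = DMSO median and -100 = no signal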
* = called active by the depositor; & = joins results of further samples.

| mol | rRNA inh HTS | rRNA inh HTS OD600 | rRNA inh HTS RFP |
| --- | --- | --- | --- |
| O=C(NCC[C@@H]1CC[C@H](NC(=O)c2cccnc2)[C@H](CO)O1)Nc1ccc(F)cc1 | 2&0 | -1&-3 | -0.1&-0.9 |
| COc1ccc2c3c([nH]c2c1)[C@H](CO)N(C(C)=O)CC31CN(C(=O)c2cccc(F)c2)C1 | -2 | 7 | -0.6 |
| COc1ccc2c3c([nH]c2c1)[C@H](CO)N(C(=O)c1ccncc1)CC31CN(C(=O)c2ccncc2)C1 | -2 | -8 | -5.4 |
| CCCN1C[C@@H](C)[C@@H](OC)CN(C)C(=O)c2cc(NC(=O)CC)ccc2OC[C@H]1C | 0 | 3 | -2.0 |
| Cn1c(SCC(=O)NCCC2=CCCCC2)nnc1C(F)(F)F | 2 | 9 | -0.4 |
| N#Cc1ccc2sn(-c3ccccc3)c(=O)c2c1 | 1 | 5 | -4.4 |
| COc1ccc(S(=O)(=O)Nc2cccc3c2O[C@@H](CN(C)C(=O)Nc2ccc(C(F)(F)F)cc2)[C@H](C)CN([C@H](C)CO)C3=O)cc1 | -8 | -8 | -0.5 |
| Cc1noc(C)c1S(=O)(=O)N(C)C[C@H]1Oc2c(NC(=O)c3cnccn3)cccc2C(=O)N([C@H](C)CO)C[C@H]1C | 3 | -1 | 4.8 |
| Nc1ncnc2c1ncn2[C@@H]1O[C@H](C(=O)N[C@@H](CCc2ccccc2)C(=O)N2CCCN(Cc3cccs3)CC2)[C@@H](O)[C@H]1O | 3 | 4 | 2.7 |
| CCC(=O)Nc1ccc2c(c1)C(=O)N(C)C[C@@H](OC)[C@@H](C)CN(Cc1cncnc1)[C@H](C)CO2 | 1 | -13 | 0.2 |
| CO[C@H]1CN(C)C(=O)c2cc(NS(C)(=O)=O)ccc2OC[C@H](C)N(C(=O)CN(C)C)C[C@@H]1C | 3 | 0 | -1.2 |
| COc1ccc(S(=O)(=O)N(C)C[C@@H]2Oc3ccc(NC(=O)C4CCCCC4)cc3C(=O)N([C@H](C)CO)C[C@H]2C)cc1 | -2 | -10 | 0.2 |
| CN1c2ccc(Br)cc2[C@@H]2[C@@H](CCN2S(=O)(=O)c2ccc(F)cc2)[C@@H]1CO | -49 | -71 | -12 |
| COc1ccc2c3c(n(C)c2c1)[C@H](CO)N(C(=O)c1ccc(F)cc1)CC31CN(C(=O)c2ccc(F)cc2)C1 | -3 | -10 | 6.5 |
| C[C@@H](NC(=O)[C@@H]1[C@@H](CO)[C@@H]2Cn3c(ccc(C4=CCCC4)c3=O)[C@@H]2N1C)c1ccccc1 | -1 | 11 | 1.8 |
| COc1ccc(S(=O)(=O)N(C)C[C@@H]2Oc3c(NC(=O)c4cnccn4)cccc3C(=O)N([C@@H](C)CO)C[C@@H]2C)cc1 | -2 | -4 | 0.7 |
| Cc1ccccc1-c1ccc2c(c1)O[C@@H](CN(C)C(=O)Nc1ccc(C(F)(F)F)cc1)[C@H](C)CN([C@H](C)CO)S2(=O)=O | 4 | 2 | -2.7 |
| C[C@@H]1CN([C@@H](C)CO)S(=O)(=O)c2ccc(C#CC3CCCC3)cc2O[C@H]1CN(C)C(=O)Cc1ccncc1 | -2 | -16 | 5.9 |
| C[C@@H]1CN([C@@H](C)CO)C(=O)c2cccc(NC(=O)NC3CCCCC3)c2O[C@@H]1CN(C)C(=O)Nc1ccc(C(F)(F)F)cc1 | -3 | 1 | 3.4 |
| CCC(=O)Nc1ccc2c(c1)OC[C@@H](C)N(C(=O)CC1CC1)C[C@H](C)[C@H](OC)CN(C)C2=O | 1 | -1 | 2.4 |

Whole records, looked up by structure.
`COc1ccc2c3c(n(C)c2c1)[C@H](CO)N(C(=O)c1ccc(F)cc1)CC31CN(C(=O)c2ccc(F)cc2)C1` as listed: rRNA inh HTS: -3; rRNA inh HTS OD600: -10; rRNA inh HTS RFP: 6.5
`COc1ccc(S(=O)(=O)Nc2cccc3c2O[C@@H](CN(C)C(=O)Nc2ccc(C(F)(F)F)cc2)[C@H](C)CN([C@H](C)CO)C3=O)cc1` as listed: rRNA inh HTS: -8; rRNA inh HTS OD600: -8; rRNA inh HTS RFP: -0.5

Carrying on.
| mol | rRNA inh HTS | rRNA inh HTS OD600 | rRNA inh HTS RFP |
| --- | --- | --- | --- |
| COc1ccc(CNC(=O)c2sc(=O)n(Cc3ccc(S(=O)(=O)N(C)C)cc3)c2C)cc1 | 8 | 5 | -6.2 |
| O=C(N[C@H]1CC[C@@H](CCn2cc(-c3ccccn3)nn2)O[C@@H]1CO)c1cccnc1 | -1 | 3 | -2.1 |
| C[C@@H]1CCCCO[C@@H](CN(C)Cc2ccc3c(c2)OCO3)[C@H](C)CN([C@@H](C)CO)C(=O)c2cc(NC(=O)Cc3ccccc3)ccc2O1 | -1 | 0 | -0.4 |
| O=C(C[n+]1cccc(C(=O)Nc2ccccc2)c1)c1ccc(Cl)cc1 | 13 | 30 | 5.1 |
| Cc1noc(C)c1NC(=O)N(C)C[C@@H]1Oc2cc(C#CCN(C)C)ccc2S(=O)(=O)N([C@@H](C)CO)C[C@H]1C | 2 | 10 | 2.8 |
| O=C(c1ccncc1)N1CC2(C1)[C@H](c1ccccc1)[C@H](CO)N2CC1CC1 | 4 | 21 | 0.9 |
| C[C@@H]1CN([C@@H](C)CO)C(=O)c2cc(NC(=O)CCCCCC(=O)Nc3ccccc3N)ccc2O[C@H]1CN(C)C(=O)NC1CCCCC1 | 1 | 3 | -3.7 |
| Cc1ccc(OCCNC(=O)[C@H]2O[C@@H](n3ccc(N)nc3=O)[C@H](O)[C@@H]2O)cc1C | 13 | -1 | 5.1 |
| COc1ccc(S(=O)(=O)Nc2ccc3c(c2)C(=O)N([C@H](C)CO)C[C@H](C)[C@@H](CN(C)C(=O)NC2CCCCC2)OCCCC[C@H](C)O3)cc1 | 2 | -4 | 5.4 |
| COc1ccc(NC(=O)Nc2ccc3c(c2)CC(=O)N([C@H](C)CO)C[C@@H](C)[C@H](CN(C)C(=O)Nc2c(C)noc2C)O3)cc1 | 3 | 15 | -1.4 |
| CCCN(C)C[C@H]1Oc2cc(C#CC3CCCC3)ccc2S(=O)(=O)N([C@H](C)CO)C[C@H]1C | 12 | 20 | -1.2 |
| C[C@@H]1CCCCO[C@H](CN(C)C(=O)Nc2ccc(F)cc2)[C@H](C)CN([C@H](C)CO)C(=O)c2cc(NS(=O)(=O)c3ccc(Cl)cc3)ccc2O1 | 3 | 7 | -3.0 |
| CO[C@@H]1CN(C)C(=O)c2ccc(NS(=O)(=O)c3cccc(F)c3)cc2OC[C@@H](C)N(Cc2cc(F)ccc2F)C[C@H]1C | -1 | -4 | 1.2 |
| O=C(C[C@@H]1CC[C@@H]2[C@H](COC[C@H](O)CN2C(=O)c2ccncc2)O1)NCc1cc(F)cc(F)c1 | 3 | 18 | -4.5 |
| O=C(C[C@@H]1CC[C@H]2[C@@H](COC[C@H](O)CN2C(=O)Nc2cccc(Cl)c2)O1)NCC1CCCCC1 | -56 | -80 | -15 |
| COc1ccc(S(=O)(=O)Nc2ccc3c(c2)C(=O)N([C@@H](C)CO)C[C@H](C)[C@@H](CN(C)Cc2ccc(Cl)c(Cl)c2)O3)cc1 | -2 | -8 | 2.5 |
| Cc1ccc(-c2ccc3c(c2)O[C@@H](CN(C)Cc2cncnc2)[C@@H](C)CN([C@H](C)CO)S3(=O)=O)cc1 | -6 | -11 | 4.3 |
| Cc1cc(OCC(=O)OCC(=O)N(Cc2ccccc2)C(C)(C)C)ccc1Cl | 8 | 16 | 2.1 |
| O=C(CN1CCOCC1)NCC[C@@H]1CC[C@H](NC(=O)Nc2ccccc2)[C@H](CO)O1 | 1 | 3 | -0.7 |
| O=C1NC[C@H](Cc2ccccc2)N(C[C@@H]2CCCN2C[C@H](Cc2ccc(O)cc2)N2C[C@H](Cc3ccccc3)N(CCc3ccccc3)C(=O)C2=O)C1=O | 4 | 2 | 2.1 |

Three entries from above, with two lines to a compound.
Sequence of screens – rRNA inh HTS, rRNA inh HTS OD600, rRNA inh HTS RFP
Cc1ccc(OCCNC(=O)[C@H]2O[C@@H](n3ccc(N)nc3=O)[C@H](O)[C@@H]2O)cc1C
 : 13, -1, 5.1
COc1ccc(S(=O)(=O)Nc2ccc3c(c2)C(=O)N([C@H](C)CO)C[C@H](C)[C@@H](CN(C)C(=O)NC2CCCCC2)OCCCC[C@H](C)O3)cc1
 : 2, -4, 5.4
COc1ccc(NC(=O)Nc2ccc3c(c2)CC(=O)N([C@H](C)CO)C[C@@H](C)[C@H](CN(C)C(=O)Nc2c(C)noc2C)O3)cc1
 : 3, 15, -1.4

The listing continues.
| mol | rRNA inh HTS | rRNA inh HTS OD600 | rRNA inh HTS RFP |
| --- | --- | --- | --- |
| CCOC(=O)C1(C)CCCN(C(=O)c2ccc(OC)c(OC)c2)C1 (stereo unspecified) | -2 | 0 | 0.0 |
| COc1ccccc1CNC(=O)C[C@H]1C=C[C@@H](NC(C)=O)[C@H](CO)O1 | 0 | -1 | -3.0 |
| O=C(C[C@H]1CC[C@H]2[C@@H](COC[C@H](O)CN2CC2CCCC2)O1)NCC1CC1 | 1 | 7 | -8.4 |
| CN1C(=O)c2cc(NS(=O)(=O)c3ccccc3Cl)ccc2OC[C@H]2O[C@@H](CC(=O)Nc3cc(F)ccc3F)CC[C@@H]21 | -3 | -11 | 7.6 |
| C[C@@H]1CN([C@@H](C)CO)C(=O)Cc2cc(NC(=O)Nc3ccc(C(F)(F)F)cc3)ccc2O[C@H]1CN(C)Cc1ccc(C(=O)O)cc1 | -4 | -39 | -9.9 |
| O=C(NC1CCCC1)N1CC(=O)N2[C@H](CO)[C@@H](c3ccc(-c4cccc(F)c4)cc3)[C@H]2C1 | -2 | -17 | 3.0 |
| O=C1NC[C@@H](CCCCN2C[C@H](Cc3ccccc3)N(Cc3ccccc3)C(=O)C2=O)N(Cc2ccccc2)C1=O | -17 | -19 | -0.3 |
| CC(C)NC(=O)N(C)C[C@@H]1Oc2ccc(NS(=O)(=O)c3ccc(F)cc3)cc2C(=O)N([C@@H](C)CO)C[C@@H]1C | 3 | 4 | -0.7 |
| CC(=O)N[C@@H]1C=C[C@@H](CC(=O)NCc2ccc(Cl)cc2)O[C@H]1CO | 2 | -1 | -1.3 |
| CC(=O)N(C)C[C@H]1Oc2cc(C#CCN(C)C)ccc2S(=O)(=O)N([C@H](C)CO)C[C@@H]1C | 0 | 8 | -0.3 |
| COCC(=O)N1C[C@H](C)[C@H](OC)CN(C)C(=O)c2ccc(NC(=O)c3cc(C)on3)cc2OC[C@H]1C | 0 | 2 | -1.5 |
| C[C@@H]1CCCCO[C@@H](CN(C)S(=O)(=O)c2cccs2)[C@H](C)CN([C@@H](C)CO)C(=O)c2cc(NC(=O)c3ccccc3)ccc2O1 | -3 | -5 | 0.6 |
| C[C@@H]1CN([C@H](C)CO)C(=O)Cc2cc(NS(C)(=O)=O)ccc2O[C@H]1CN(C)Cc1ccc2c(c1)OCO2 | 1 | 0 | -1.4 |
| CCCN(C)C[C@H]1OCCCC[C@@H](C)Oc2ccc(NS(=O)(=O)c3c(C)noc3C)cc2C(=O)N([C@@H](C)CO)C[C@H]1C | 0 | 11 | -0.8 |
| Cc1ccccc1S(=O)(=O)N1C[C@@H](O)COC[C@@H]2O[C@@H](CC(=O)N3CCN(C)CC3)CC[C@H]21 | 5 | 11 | -2.5 |
| COC(=O)C1(C(=O)OC)C[C@H](c2ccc(OC)cc2)N(Cc2ccccc2OC)[C@@H]1c1ccccc1 | 24 | 14 | 4.0 |
| COc1ccc(NC(=O)Nc2ccc3c(c2)CC(=O)N([C@@H](C)CO)C[C@H](C)[C@@H](CN(C)Cc2ccncc2)O3)cc1 | -2 | -3 | -0.8 |
| C[C@H]1CN([C@@H](C)CO)C(=O)CCCn2cc(nn2)CO[C@@H]1CN(C)S(=O)(=O)c1ccc(Oc2ccccc2)cc1 | -4&0 | -4&-8 | 0.5&0.2 |
| CO[C@H]1CN(C)C(=O)c2ccc(NS(C)(=O)=O)cc2OC[C@H](C)N(C(=O)C2CCOCC2)C[C@H]1C | 3 | 4 | 0.1 |
| COc1ccc(NC(=O)Nc2ccc3c(c2)[C@H]2C[C@H](CC(=O)N4CCc5ccccc5C4)O[C@@H](CO)[C@H]2O3)cc1 | -6 | 7 | 8.0 |

Additional structures
| mol | rRNA inh HTS | rRNA inh HTS OD600 | rRNA inh HTS RFP |
| --- | --- | --- | --- |
| CC1(C(=O)NS(=O)(=O)c2cccc(F)c2)CCN1C(=O)Cc1ccc(Cl)cc1Cl (stereo unspecified) | 4 | 1 | 0.0 |
| CC(C)NC(=O)N(C)C[C@H]1Oc2ncc(C#CC3CCCCC3)cc2C(=O)N([C@@H](C)CO)C[C@@H]1C | -2 | -14 | 0.3 |
| CCCNC(=O)N1C[C@H](O)COC[C@@H]2O[C@@H](CC(=O)NCCCN3CCOCC3)CC[C@H]21 | -2&16 | 7&10 | 0.8&1.4 |
| CC(C)(C)NC(=O)C(c1ccncc1)n1c(=O)c(-c2ccccc2)nc2ccccc21 (stereo unspecified) | 9 | 4 | -0.8 |
| Cc1noc(C)c1S(=O)(=O)Nc1cccc2c1O[C@H](CN(C)S(=O)(=O)c1cccs1)[C@H](C)CN([C@H](C)CO)C2=O | 1 | 2 | 1.1 |
| CCCCCCC12C(=Cc3cc4c(cc31)OCCO4)c1cc(OC)c(OC)cc1C(CC(=O)NCc1ccccc1)N2C(=O)OC (stereo unspecified) | 17 | 23 | 8.2 |
| COc1ccc(NC(=O)N(C)C[C@H]2Oc3cc(-c4cccc(C(=O)N(C)C)c4)ccc3S(=O)(=O)N([C@H](C)CO)C[C@H]2C)cc1 | 1 | 0 | -4.2 |
| C[C@@H]1CN([C@@H](C)CO)C(=O)c2cc(NC(=O)Nc3ccccc3)ccc2O[C@@H]1CN(C)S(C)(=O)=O | 5 | 6 | 1.0 |
| O=C(c1cccs1)N1C[C@H](n2cc(C3CC3)nn2)[C@@H](O)C[C@@H]1c1ccc(Cl)cc1 | -4 | -13 | -3.3 |
| CN(C)CC(=O)Nc1ccc2c(c1)[C@@H]1C[C@H](CC(=O)NCC3CC3)O[C@H](CO)[C@@H]1O2 | -1 | 5 | -0.6 |

These rows are one share of the data; count on the stated rates, not on these rows.
